Bioassay records deposited in PubChem by several laboratories.
RGS16-Gao: RGS16-Galphao interaction regulator (human). O15492+P09471. bead-based flow cytometry RGS16-Galphao binding, fluorescence; actives lie on both sides. binding response (% of control), % at 10 µM. 0.38% of 220,000 active. AID 1441;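 active means below 25% or above 175%, edge rows of some plates excepted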;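 further: Galphao activated by GDP with aluminum fluoride before binding; 100% = wells without compound and 0% = beads without RGS; some results beyond the cut were filed as inactive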
HSV augment: increases HSV replication in cells | HSV replication augmentation in cells, fold increase | maximum fold increase | 0.005% of 220,000 active | AID 1956;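 active means peak rise of 1.5-fold or more in the series; tested in PC3 cells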;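 further: first round at 10 µM; read as green reporter fluorescence; hits show the peak of a series up to 25 µM; 1 = signal of infected wells without compound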
PKD1 inh: inhibitors of human PKD1 kinase; 0.056% of 200,000 active; Q15139; inhibition, %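 (about 10 µM by stock and volumes)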; PKD1 kinase fluorescence polarization assay;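 active means inhibition of 50% or more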;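 further: controls were vehicle for no effect and a reference inhibitor for full effect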
Target sequence (Q15139 whole entry, looked up): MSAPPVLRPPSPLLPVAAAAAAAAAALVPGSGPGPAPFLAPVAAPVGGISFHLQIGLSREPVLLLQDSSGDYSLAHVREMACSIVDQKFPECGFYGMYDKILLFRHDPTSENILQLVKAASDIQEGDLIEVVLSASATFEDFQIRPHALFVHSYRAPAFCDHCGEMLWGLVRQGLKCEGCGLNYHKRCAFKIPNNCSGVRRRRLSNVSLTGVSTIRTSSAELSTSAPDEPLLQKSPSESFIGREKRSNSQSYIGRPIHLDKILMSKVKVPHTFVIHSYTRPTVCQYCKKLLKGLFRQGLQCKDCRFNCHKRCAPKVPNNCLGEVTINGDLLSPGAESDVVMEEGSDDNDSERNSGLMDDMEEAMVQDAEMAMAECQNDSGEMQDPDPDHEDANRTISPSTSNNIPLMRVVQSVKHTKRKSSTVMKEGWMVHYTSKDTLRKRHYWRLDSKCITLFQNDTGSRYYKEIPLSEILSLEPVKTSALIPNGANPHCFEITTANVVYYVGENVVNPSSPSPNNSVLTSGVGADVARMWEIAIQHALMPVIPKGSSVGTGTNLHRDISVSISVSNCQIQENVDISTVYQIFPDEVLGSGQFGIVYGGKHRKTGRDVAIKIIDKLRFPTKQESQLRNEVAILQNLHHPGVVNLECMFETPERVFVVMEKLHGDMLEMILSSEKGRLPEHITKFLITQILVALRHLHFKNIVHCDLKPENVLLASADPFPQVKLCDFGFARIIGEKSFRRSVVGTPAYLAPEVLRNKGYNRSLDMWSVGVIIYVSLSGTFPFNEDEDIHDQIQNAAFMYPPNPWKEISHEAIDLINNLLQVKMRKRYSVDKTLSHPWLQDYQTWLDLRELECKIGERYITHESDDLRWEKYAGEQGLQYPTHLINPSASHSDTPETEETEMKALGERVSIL
GALR2 ag: GALR2 (human) receptor agonism | O43603 | GALR2-expressing cells, agonist activation read-out | activation, %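 (tested at 5 µM)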 | 0.48% of 140,000 active | AID 803;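 active means above mean plus 3 SD of all compounds, about 5% in these data, not always enough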;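 further: 0% = vehicle buffer wells and 100% = reference agonist at full effect; tested in CHO reporter cells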
INS promoter inh: TRM-6 insulin promoter activity inhibition | TRM-6 cells (human fetal islet line), insulin promoter-eGFP reporter, imaging; reporter expression induced with tamoxifen | inhibition, % at 2 µM | 0.9% of 130,000 active;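 active means inhibition above the mean plus 3 SD, with well images judged a real hit on visual review, cut at about 60% in these data, passing the limit was not always enough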
INS promoter inh cell count: second read-out of INS promoter inh, no call of its own (marks repeat the call); normalized cell count, %; measured here: cell count, toxicity; reference of the scale not given here;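 cells exposed to compound for 48 h; stained nuclei by imaging scaled within each plate; lower means fewer cells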
HSV augment primary fold: further read-out of HSV augment, marked with its call; fold increase; compound at 10 µM; measured here: primary screen fold increase 10 uM; tested in PC3 cells;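 GFP signal in the first replicate; 1 = infected wells without compound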
* = called active by the depositor; i = inactive; · = not tested or not shown.

Preview, two compounds:
SMILES	RGS16-Gao	HSV augment	HSV augment primary fold	PKD1 inh	GALR2 ag	INS promoter inh	INS promoter inh cell count
Cc1ccc(S(=O)(=O)N/N=C/c2ccc(O)c(O)c2)cc1[N+](=O)[O-]	96.8	i	1.04	4.3	·	·	·
O=S(=O)(c1cccs1)N1CCN(c2ccccn2)CC1	101.5	i	0.97	-2.5	-1.1	51.4	52.7

The whole of this part, from the start:
SMILES	RGS16-Gao	HSV augment	HSV augment primary fold	PKD1 inh	GALR2 ag	INS promoter inh	INS promoter inh cell count
Cc1ccc(S(=O)(=O)N/N=C/c2ccc(O)c(O)c2)cc1[N+](=O)[O-]	96.8	i	1.04	4.3	·	·	·
O=S(=O)(c1cccs1)N1CCN(c2ccccn2)CC1	101.5	i	0.97	-2.5	-1.1	51.4	52.7
O=C(c1ccc(F)cc1)N(NC(=O)C(O)(c1ccccc1)c1ccccc1)c1ccccc1	112.9	i	1.11	-1.1	-0.7	-89.2	59.1
Cc1cc(NC(=O)Cc2ccccc2)no1	110.6	i	0.92	4.9	-1.2	18.8	125.5
Cc1nc(CS(=O)(=O)c2ccccn2)sc1C(=O)NNC(=O)c1ccc(Cl)cc1	91.2	i	0.89	·	·	·	·
Cn1c(C(=O)OC(C(=O)NC2CCCCC2)c2ccccn2)cc2sccc21 (configuration not stated)	99.3	i	0.88	9.3	0.9	39.5	98.6
Cc1cc(C(=O)Nc2ncn[nH]2)ccc1[N+](=O)[O-]	98.0	i	0.99	-2.0	-0.1	26.1	194.7
CN(c1ccc(C(=O)NCC2CCCO2)cc1)S(C)(=O)=O (configuration not stated)	104.3	i	0.86	1.0	0.9	28.6	141.9
Cc1cc(N2CCOCC2)nc2ccc(NC(=O)CCC(=O)N3CCC(C)CC3)cc12	94.5	i	0.81	4.3	-1.0	·	·
CCOc1nc(NC(=O)NS(=O)(=O)Oc2ccccc2Cl)nc(-c2ccccc2)n1	104.9	i	1.1	3.5	6.0	69.2	161.2
COC(=O)C(C(=O)N1CCN(C)CC1)C1CCCCCC1 (configuration not stated)	96.6	i	0.96	-0.7	-0.7	-431.2	64.3
Cn1c2c(c(=O)[nH]c1=O)C(c1cccc(O)c1)C1=C(N2)c2ccccc2C1=O (configuration not stated)	104.3	i	0.64	0.6	·	·	·
Cc1ccc(C)c(N2CCN(C(=O)C3CCN(c4nnc(N5CCCC5=O)s4)CC3)CC2)c1	·	·	·	-6.3	-2.8	-28.6	111.9
CCn1ccnc1CN1CCc2c([nH]c3ccccc23)C1C1CCCCC1 (configuration not stated)	95.4	i	1.17	3.7	·	41.5	61.7
Nc1ccc(Oc2ccc3nc(-c4ccccc4)c(-c4ccccc4)nc3c2)cc1	98.4	i	0.97	-14.7	-2.0	·	·
Cc1nn(CC2CC2)c(=O)n1-c1ccc(Cl)cc1	100.8	i	0.91	-6.1	·	·	·
Cc1cc(/C([O-])=C(/C(=S)Nc2ccccc2)[n+]2ccccc2)c(C)n1-c1ccccc1	81.8	i	1.02	-3.1	-1.9	51.4	67.4
COc1ccc(N2CCN(C(=O)c3ccc(C)cc3Cl)CC2)cc1	101.7	i	1.22	-6.2	-0.2	66.7	80.6
O=[N+]([O-])c1ccccc1Oc1ccccc1Cl	101.4	i	1	5.7	0.1	-31.4	93.2
COc1ccc(NC(=O)Cn2cccc2)cc1Cl	96.5	i	0.93	17.5	-1.4	·	·
CC(C)Oc1cccc(-c2nnc(SCC(=O)Nc3ccc4c(c3)OCCO4)n2N)c1	102.8	i	1.07	0.6	-1.0	-22.9	98.5
O=C(Nc1ccc2c(c1)OCO2)N1CCC(CO)(CC2CCCCO2)CC1 (configuration not stated)	108.7	i	0.95	-2.6	·	·	·
C/C(=N\O)c1ccc(Cl)cc1Cl	100.6	i	0.92	·	·	·	·
CCCc1cc(C(=O)NCCc2ccccc2)no1	118.4	i	0.91	0.1	-1.3	·	·
Oc1ccc(/C=N/NC(=S)NCCN2CCOCC2)c(O)c1	96.6	i	0.91	-12.9	·	·	·
CCNC(=O)/C(=C/c1ccc2c(c1)OCO2)NC(=O)c1ccc(Br)cc1	88.7	i	1.27	10.8	-2.7	-84.6	91.0
Cc1nc(NC(=O)c2ccccc2[N+](=O)[O-])sc1C(=O)N(C)C	62.2	·	·	4.9	-3.6	30.8	124.2
CC(C)C(c1nnnn1Cc1ccc2c(c1)OCO2)N1CCN(C)CC1 (configuration not stated)	101.1	i	1.24	-5.5	-4.0	-406.2	26.4
N#CC(Nc1ccccc1)c1ccccc1OCc1ccccc1 (configuration not stated)	107.1	i	0.76	7.2	-1.4	-8.1	100.0
O=c1[nH]c(Nc2ccc3c(c2)OCCO3)nnc1Cc1ccccc1	108.9	i	1.02	-1.4	·	-45.5	106.3
Cc1nc(C(=O)NCC(=O)c2ccc(Cl)cc2)c(C(F)(F)F)o1	97.6	i	1.06	·	·	·	·
CCN(CC)CC#CCC(O)(c1ccccc1)C1CCCCC1 (configuration not stated)	93.5	i	1.09	-5.2	·	·	·
CCN(C(=O)CSc1cc(C)c2ccccc2n1)c1c(N)n(Cc2ccccc2)c(=O)[nH]c1=O	97.7	i	1.27	1.9	·	-22.2	82.3
Cc1cccc2c(N)c3c(nc12)CCCC3 (tested in a mixture with another compound)	103.9	i	1.02	-0.2	·	-41.7	68.7
CC1CN(C(=O)COC(=O)c2ccc(N)c([N+](=O)[O-])c2)CC(C)O1 (configuration not stated)	72.3	i	1.2	2.0	0.4	·	·
Cc1ccc(S(=O)(=O)Nc2ccccc2F)cc1C(=O)NCCCN1CCCC1=O	102.8	i	1.04	3.0	-1.7	·	·
COc1ccc(S(=O)(=O)Nc2cccc(C(C)=O)c2)cc1Br	105.7	i	0.96	2.9	·	26.7	52.9
O=C(C1=C[C@H](c2ccc3c(c2)OCO3)C[C@H](OCc2ccc(CO)cc2)O1)N1CCOCC1	97.8	i	0.86	8.2	·	·	·
CCCOC(=O)C1=C(C)NC2=C(C(=O)CC(C)(C)C2)C1c1cccnc1 (configuration not stated)	104.2	i	1	-6.9	1.0	-14.3	122.5
CCOP(=O)(OCC)C(C#N)=C1SCN(c2ccccc2)CS1	·	i	0.95	-4.9	0.3	20.5	148.2
CCN(CC)C(=S)SCC(=O)Nc1ccc(S(N)(=O)=O)cc1	99.3	i	0.92	-1.7	·	·	·
C#CCNC(=O)C1=C[C@@H](C2CC2)C[C@@H](OCc2ccc(CO)cc2)O1	94.2	i	1.14	-0.2	·	·	·
COc1cccc(C(C(=O)NC(C)(C)C)N(C(=O)CCC(=O)Nc2cc(C)on2)C(C)C)c1OC (configuration not stated)	99.8	i	1.02	-7.2	-0.5	-50.0	76.7
CCC(C(=O)O/N=C(\N)c1cccc(C)c1)c1ccccc1 (configuration not stated)	96.6	i	0.837	-0.1	0.3	45.2	78.0
Cc1oc(-c2ccc(F)cc2)nc1CN(Cc1ccccn1)CC1CCCO1 (configuration not stated)	96.7	i	0.66	-12.5	·	·	·
Cc1onc(-c2ccccc2Cl)c1C(=O)NCCCN1CCOCC1	98.6	i	0.933	-5.0	-2.0	·	·
Cc1cc(C(C)(C)C)oc1C(=O)N(CC(=O)NC1CCCC1)Cc1ccccc1Cl	98.4	i	1.07	5.1	-3.9	-15.6	124.2
Cc1ccccc1S(=O)(=O)Oc1ccccc1C(=O)Oc1ccccc1	106.8	·	·	-6.7	-1.2	·	·

Four records drawn at random from the list so far:
SMILES	RGS16-Gao	HSV augment	HSV augment primary fold	PKD1 inh	GALR2 ag	INS promoter inh	INS promoter inh cell count
CCN(CC)C(=S)SCC(=O)Nc1ccc(S(N)(=O)=O)cc1	99.3	i	0.92	-1.7	·	·	·
Cc1oc(-c2ccc(F)cc2)nc1CN(Cc1ccccn1)CC1CCCO1 (configuration not stated)	96.7	i	0.66	-12.5	·	·	·
Cc1ccccc1S(=O)(=O)Oc1ccccc1C(=O)Oc1ccccc1	106.8	·	·	-6.7	-1.2	·	·
C#CCNC(=O)C1=C[C@@H](C2CC2)C[C@@H](OCc2ccc(CO)cc2)O1	94.2	i	1.14	-0.2	·	·	·

(further entries)
SMILES	RGS16-Gao	HSV augment	HSV augment primary fold	PKD1 inh	GALR2 ag	INS promoter inh	INS promoter inh cell count
Cc1cc(C(C)(C)C)oc1C(=O)N(CC(=O)NC1CCCC1)c1c(C)cccc1C	98.9	i	0.96	-5.3	-0.9	12.9	131.2
O=S(=O)(c1ccccc1)c1cnn(-c2ccccc2)c1-c1ccc(F)cc1	101.6	i	0.74	-6.6	-2.3	-30.4	93.4
FC(F)Sc1ccc(NC(=S)NCc2ccccc2)cc1	99.0	i	1.13	11.7	·	·	·
Cc1cc(N/C=C\C(=O)c2ccc(Cl)c(Cl)c2)no1	99.8	i	0.93	0.9	-0.5	31.4	56.0
CCc1cccc(C)c1NC(=S)NCC1CCN(c2ccc(OC)cc2)C1 (configuration not stated)	102.0	i	0.84	0.0	·	-13.3	116.7
O=C(CN1CCOCC1)Nc1c(Cl)cc(Cl)cc1Cl	92.2	i	1.1	-2.4	·	·	·
C/C(=N\NC(=O)Cn1c(C)nc2ccccc21)c1cccs1	123.1	i	0.93	-10.9	-0.4	19.4	162.3
O=C(CCC(=O)c1ccccc1)Nc1cccnc1	120.2	i	0.987	3.4	0.0	17.2	65.3
CC1CCN(C(=O)CSc2nc3c(cnn3-c3ccccc3)c(=O)[nH]2)CC1	106.7	i	1.04	6.8	-1.6	·	·
COc1ccc(S(=O)(=O)Cc2ccc(C(=O)NCc3ccccn3)o2)cc1	97.7	i	0.91	-17.2	-2.2	·	·
OCCc1ccc(-c2ccc(Cl)cc2)o1	100.5	i	0.983	-1.1	-3.7	-450.0	68.0
O=C(CCl)NN=C(c1ccccc1)c1ccccc1	94.6	i	1.02	-8.3	·	·	·
COc1ccc(Cl)cc1C(=O)Nn1c(C)nc2ccccc2c1=O	100.7	·	·	1.0	-0.5	14.3	116.9
Cc1cc(C)c2nc(N3CCCN(C(=O)c4ccco4)CC3)c(C#N)cc2c1	94.8	i	0.83	-2.8	0.7	·	·
COc1ccc(Br)cc1CN(C)C(=O)c1ccc2c(c1)NC(=O)C(C)S2 (configuration not stated)	101.8	i	0.92	-3.8	·	·	·
O=C(NNC(=O)c1ccc([N+](=O)[O-])o1)c1ccccc1	95.8	i	0.78	-5.8	-3.1	-35.1	86.2
Cc1c(/C(O)=C2/C(=O)C(=O)N(CCN(C)C)C2c2ccc(C(C)C)cc2)cnn1-c1ccccc1 (configuration not stated)	98.2	i	0.93	·	·	·	·
CC(C)CC1(C)NC(=O)NC1=O (configuration not stated)	99.9	i	0.91	-7.3	-2.1	0.0	96.9
O=S(=O)(c1cccc(C(F)(F)F)c1)N1CCN(c2ccccc2)CC1	98.1	i	0.92	-4.1	12.0*	17.1	145.8
COc1cc(NC(=O)c2cc(C)on2)cc(C(=O)Nc2cccc(C(F)(F)F)c2)c1	99.6	i	0.74	·	·	·	·
Cc1ccc(NC(=O)COC(=O)C2CC2(Cl)Cl)cc1C (configuration not stated)	98.0	i	1.02	-0.2	·	-42.9	51.5
COc1ccc(/C=c2/sc3nc(-c4ccccc4)c(-c4ccccc4)n3c2=O)cc1	93.3	i	0.96	1.6	-1.3	·	·
Cc1ccc(C(=O)/C=C/c2ccc(-c3ccc(C)cc3)o2)cc1	97.7	i	0.92	-4.2	-0.6	34.5	105.5
O=[N+]([O-])c1cccc(C(=Nc2ccccc2)NO)c1	104.0	i	1.23	8.5	-0.3	-6.1	129.7
CC1CCCCN1C(=O)CSc1nc2ccccc2[nH]1 (configuration not stated)	96.3	i	1.04	-2.7	·	·	·
CCOC(=O)c1cnn(-c2cc(C)nc3c(-c4ccccc4)cnn23)c1N	98.2	i	0.86	-9.6	0.3	-16.7	96.3
O=C(CSc1ccccn1)Nc1cccc(NC(=O)CSc2ccccn2)n1	51.1	i	0.75	-7.0	0.8	-10.0	93.4
CCOC(=O)/C(=N/Nc1ccc(OC)cc1)N1CCCc2ccccc21	104.0	i	1.04	·	·	·	·
Cc1occc1C(=O)Nc1ccc(S(=O)(=O)N2CCN(C)CC2)cc1	100.5	i	0.78	-1.8	-0.9	31.2	174.8
CCCNC(=S)Nc1ccc(Br)cc1	113.5	i	0.98	0.0	-1.7	55.2	95.6
CC(=O)c1c(C)nn(C(C)CC(=O)O)c1C (configuration not stated)	66.9	i	1.02	-2.4	-2.9	-23.1	85.3
Cc1ccc(S(=O)(=O)N(C)C)cc1NC(=O)COC(=O)/C=C/c1cnc2ccccc2n1	96.2	i	0.97	-0.8	·	-22.2	105.6

Already shown: three of the compounds above.
SMILES	RGS16-Gao	HSV augment	HSV augment primary fold	PKD1 inh	GALR2 ag	INS promoter inh	INS promoter inh cell count
CCOC(=O)c1cnn(-c2cc(C)nc3c(-c4ccccc4)cnn23)c1N	98.2	i	0.86	-9.6	0.3	-16.7	96.3
O=C(CSc1ccccn1)Nc1cccc(NC(=O)CSc2ccccn2)n1	51.1	i	0.75	-7.0	0.8	-10.0	93.4
CCOC(=O)/C(=N/Nc1ccc(OC)cc1)N1CCCc2ccccc21	104.0	i	1.04	·	·	·	·

Outcome played no part in choosing rows (roughly 1.3% active in at least one column).
